From PubChem
SARS PLpro yeast: SARS-CoV PLP inhibition in yeast; 0.19% of 330,000 active; Potency, µM (top dose mostly 32.9 µM), for inactives: at the top dose activity, positive = growth rescue; S. cerevisiae expressing SARS-CoV PLpro, growth rescue; control for the full effect not named in the record; active means well fitted rising curve with a large enough effect; inconclusive means small, poorly fitted or top-dose-only effect; inactive means no such curve, though single readings can be large or run the other way; also: 0% is about no effect; nearly all actives have a fitted effect of over 55% in size; growth read by luminescence after 48 h
2A StopGo: FMDV 2A StopGo reporter, luciferase signal | human cells with a luciferase reporter of 2A StopGo recoding; control for the full effect not named in the record | 1.2% of 410,000 active | Potency, µM (top dose mostly 57.9 µM), inactives show at the top dose signal change, negative = less light | AID 1159524; active = well fitted falling curve with a large enough effect; inconclusive = small, poorly fitted or top-dose-only effect; inactive = no such curve, though single readings can be large or run the other way; tested in HEK293T cells; also: % is scaled to controls: 0 for no effect and ±100 for the full control effect; nearly all actives have a fitted effect of over 45% in size; luciferase light after 4 h
NS1 inh: blocks influenza NS1 protein function | S. cerevisiae slowed by influenza A NS1, growth recovery by OD600 | Potency, µM (highest dose often 46.1 µM), without a hit: at the highest dose activity, positive = more growth | 0.4% of 270,000 active; active means well fitted rising curve with a large enough effect; inconclusive means small, poorly fitted or top-dose-only effect; inactive means no such curve, though single readings can be large or run the other way; also: nearly all actives have a fitted effect of over 50% in size
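In this qHTS, NS1 from influenza A is expressed in budding yeast, where it slows growth. Cells are switched from glucose to 2% galactose medium (pH 6.0, -URA), treated with compound, and growth recovery is read at OD600.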
RE007 growth inh: less growth of the S. pombe RE007 Vpr strain; S. pombe RE007 Vpr strain, BacTiter-Glo ATP luminescence, 24 h; control for the full effect not named in the record; Potency, µM (doses to about 92.2 µM), for the others: at the top dose activity change, negative = less growth; 0.21% of 360,000 active; AID 651644; active = well fitted falling curve with a large enough effect; inconclusive = small, poorly fitted or top-dose-only effect; inactive = no such curve, though single readings can be large or run the other way;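 also: % is scaled to controls: 0 for no effect and ±100 for the full control effect; nearly all actives have a fitted effect of over 50% in size; the assay follows cell death caused by Vpr and the record does not say whether a fall means rescue or toxicity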
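Fission yeast RE007 carrying one integrated HIV-1 vpr copy, seeded at OD 0.01 in PMG+AL medium with 23 nL pinned compound. Grown 24 h at 30 degrees; viability read by BacTiter-Glo luminescence after 5 min.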
Marburg entry inh: Marburg virus entry inhibition | Marburg virus pseudotyped entry inhibition, cell reporter; control for the full effect not named in the record; about a third of the inactives were read at about 46 µM | Potency, µM (titrated, usually from 37.8 µM), for inactives: at the top dose activity change, negative = inhibition, actives largely listed as inhibitors | AID 540276 | 1.8% of 300,000 active; active = well fitted inhibition curve with a large enough effect; inconclusive = small, poorly fitted or top-dose-only effect, or effect the other way; inactive = flat fitted curve, though single readings scatter; tested in HEK293 cells; about a fifth of its hits are not listed in these tables; also: % is scaled to controls: 0 for no effect and ±100 for the full control effect; luciferase read-out
Lassa entry inh: blocks Lassa virus binding to or entry into cells; AID 540256; 1.2% of 300,000 active; Lassa virus pseudotype entry inhibition, cell reporter; control for the full effect not named in the record; Potency, µM (highest dose often 37.9 µM), without a hit: at the top dose activity change, negative = inhibition, most hits filed as inhibitors; active means well fitted inhibition curve with a large enough effect; inconclusive means small, poorly fitted or top-dose-only effect, or effect the other way; inactive means flat fitted curve, though single readings scatter; tested in HEK293 cells; also: % is scaled to controls: 0 for no effect and ±100 for the full control effect; nearly all actives have a fitted effect of over 50% in size; luciferase read-out
Cruzain Triton: inhibitors of Trypanosoma cruzi cruzain with detergent; P25779; purified cruzain, Z-FR-AMC fluorescence, 0.01% Triton; Potency, µM, for the others: max response, negative = inhibition, actives largely listed as inhibitors; 0.43% of 200,000 active; AID 1478;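 also: plate controls were neutral wells for no effect and buffer without enzyme for full effect; nearly all actives have a fitted effect of over 40% in size; top concentration of the series not given in the record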
Target sequence (P25779 123-467 limits assumed): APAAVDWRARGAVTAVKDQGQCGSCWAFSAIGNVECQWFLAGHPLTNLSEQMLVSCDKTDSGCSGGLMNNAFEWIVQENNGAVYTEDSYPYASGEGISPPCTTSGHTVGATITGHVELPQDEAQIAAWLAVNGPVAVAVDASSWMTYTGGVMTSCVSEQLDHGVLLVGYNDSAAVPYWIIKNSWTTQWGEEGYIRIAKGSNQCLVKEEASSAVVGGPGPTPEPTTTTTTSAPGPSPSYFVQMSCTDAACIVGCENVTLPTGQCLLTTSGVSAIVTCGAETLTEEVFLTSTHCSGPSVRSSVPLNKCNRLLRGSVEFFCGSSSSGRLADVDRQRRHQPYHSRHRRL
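Read-out: AMC fluorescence (360 nm excitation, 450 nm emission), four reads over 2 min, first-to-third difference used. Conditions: cruzain 1.5 nM, Z-FR-AMC 2 uM, pH 5.5 acetate, 5 mM DTT, 0.01% Triton X-100.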
Cruzain noTriton: inhibitors of Trypanosoma cruzi cruzain without detergent. P25779. purified cruzain, Z-FR-AMC fluorescence, no detergent. Potency, µM, for inactives: max response, negative = inhibition, actives largely listed as inhibitors. 2.3% of 200,000 active;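 also: plate controls were enzyme without inhibitor for no effect and buffer without enzyme for full effect; nearly all actives have a fitted effect of over 40% in size; top concentration of the series not given in the record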
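Detergent-free condition (0.00005% Triton X-100) in acetate buffer pH 5.5 with DTT. 1.5 nM enzyme and compound were pre-mixed 15 min, then 2 uM Z-FR-AMC substrate added; reaction progress from fluorescence change between first and third reads (60 s).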
* = called active by the depositor; ? = inconclusive; . = no result given; [ ] = another dose, or the depositor's remark. Unless noted, calls follow the shape of the dose curve; as a rule, active = well fitted curve in the direction sought with a large enough effect; inconclusive = small, poorly fitted or top-dose-only effect, or another doubt; inactive = no such curve, though single readings can be large; an effect the other way counts as inactive or inconclusive. Potency is read from the fitted curve at half-maximal effect. Random draw from the library; 4.6% or so of the library scored in one or more.

Value order – SARS PLpro yeast | 2A StopGo | NS1 inh | RE007 growth inh | Marburg entry inh | Lassa entry inh | Cruzain Triton | Cruzain noTriton
1	O=C(Nc1ccc2nc(-c3ccccc3)[nH]c2c1)c1ccco1
→ 0% | 19% | -11% | -1% | ? | ? | -1.6% | -29%
2	O=C1NC(=O)C2C1C(c1cccs1)NN2Cc1ccccc1 (stereo not drawn)
→ 1% | -5% | . | -21% | -2%[46.1 µM] | -3%[46.1 µM] | . | .
3	CCN(CC)CCNC(=O)C1CCC(=O)N1CCc1ccccc1 (stereo not drawn)
→ 1% | -3% | -3% | 0% | 10% | 1% | 1.1% | 9%
4	CCc1cccc(NC(=O)c2ccc(Cn3c(=O)[nH]c4ccsc4c3=O)cc2)c1
→ -12% | 16% | 2% | 7% | ? | -2% | 8.4% | ?
5	CCOC(=O)/C=C1\SCC(=O)N1CC(=O)Nc1ccc2c(c1)CCC2
→ 1% | 5% | -24% | -1% | 6% | ? | 0.3% | -1%
6	COc1ccc(CC2(CCc3ccccn3)C(=O)NC(=O)N(c3ccccc3C)C2=O)cc1OC (stereo not drawn)
→ 0% | -12% | -3% | 3% | -19%[46.1 µM] | 7%[46.1 µM] | . | .
7	O=c1[nH]c(/C=C/c2ccccc2F)nc2ccccc12
→ 1% | 31%[activator] | -3% | -6% | . | . | . | .
8	COc1ccc(Cl)cc1S(=O)(=O)NCc1ccc2c(c1)CCN2C(=O)c1cccc(C)c1
→ . | 19% | . | . | . | ? | 2.2% | 21%
9	CCOc1ccc(N(C(C)C(=O)N2CCCC2)S(C)(=O)=O)cc1 (stereo not drawn)
→ -1% | -5% | -61% | 5% | ? | ? | . | .
10	Cc1ccc(Nc2c(-c3c[nH]c4ccccc34)nc3ccccn23)cc1
→ . | 49%[activator] | . | . | . | ? | -11% | ?
11	CCc1ccccc1NC(=O)C1CCCN(S(=O)(=O)c2cccc3nsnc23)C1 (stereo not drawn)
→ . | -21% | . | . | 6%[46.1 µM] | -5%[46.1 µM] | -4.5% | 2%
12	Cc1c(C(=O)NCCN(C)C)sc2nc3n(c(=O)c12)CCC3
→ . | -11% | . | . | . | 0%[46.1 µM] | -2.1% | -9%
13	Cc1cc(Nc2ccccc2)n(-c2nc3ccccc3[nH]2)n1
→ -20% | -6% | -116% | 35µM* | ? | ? | -5.9% | -8%
14	COc1ccc(CNc2nc3ccccc3n2Cc2ccccc2)cc1OC
→ 2% | -27% | -10% | -2% | ? | ? | 2.0% | 8%
15	C/C=C\C=C/C(=O)Nc1cccc(C2=NOC3(C2)C[C@@H](C(N)=O)N(C(=O)/C=C/CC)C3)c1 (stereo partly drawn)
→ 1% | 8% | -2% | -2% | . | . | . | .
16	Cc1cn(C2CCCO2)c(=O)nc1N (stereo not drawn)
→ . | -14% | . | -1% | ? | 18% | . | .
17	Cc1ccc(C(=O)OC2CCOC2=O)cc1NC(=O)c1ccco1 (stereo not drawn)
→ . | 0% | 0% | 11% | 7% | 12% | 5.5% | -4%
18	Cc1ccc(C(C)C)c(OCCCCN2CCNCC2)c1
→ 1% | -19% | -17% | -17% | . | . | . | .
19	C=CCn1c(SCC(=O)Nc2ncc(Cc3ccc(C)c(Cl)c3)s2)nnc1-c1ccncc1
→ ? | ? | 28% | 7% | ? | 19% | -2.4% | 10%
20	Cc1nn(Cc2c(Cl)cccc2Cl)c(C)c1NC(=O)/C=C/c1cnn(C)c1C
→ -15% | -10% | 4% | 1% | 0% | 10%[14.3 µM] | 6.4% | ?
21	O=C1CNC(=O)/C(=C\c2ccc(F)cc2)N1
→ 0% | 33%[activator] | 0% | 1% | 3%[46.1 µM] | 1%[46.1 µM] | . | .
22	O=C(Nc1ccc(OC(F)(F)F)cc1)c1ccc2nc[nH]c2c1
→ 1% | 0% | 17% | 4% | . | . | . | .
23	Nc1c(-c2ccccc2)c(CN2CCOCC2)nn1-c1ccc(C(=O)O)cc1
→ 6% | -7% | -4% | . | ? | 7% | 0.6% | -5%
24	O=C(NCCC1CCCCN1S(=O)(=O)c1ccccc1)C(=O)Nc1ccccc1 (stereo not drawn)
→ -3% | 0% | . | 5% | -3% | ? | . | .
25	COc1cccc(-n2c(O)c(C=Nc3c(C)n(C)n(-c4ccccc4)c3=O)c(=O)[nH]c2=O)c1
→ 20% | -4% | 4% | 15% | 7% | -2% | -5.3% | -19%
26	CN1CCN(C(=O)CN(c2cc(C(F)(F)F)ccc2Cl)S(C)(=O)=O)CC1
→ 8% | . | 5% | 14% | 4% | 6% | 6.1% | -7%
27	CC(C)CC(c1nnnn1Cc1ccc2c(c1)OCO2)N1CCC(C(N)=O)CC1 (stereo not drawn)
→ 1% | 16% | -4% | 1% | -13%[46.1 µM] | 6% | . | .
28	CCCS(=O)(=O)c1nc(S(=O)(=O)c2ccc(C)cc2)c(N2CCOCC2)s1
→ 4% | 18% | -1% | 13% | 0% | 0% | . | .
29	CCCCN(CC)C(=O)c1oc2ccc(S(=O)(=O)N3CCCC3)cc2c1C
→ 2% | -4% | -23% | -3% | . | . | . | .
30	CCOc1ccccc1/C=C/c1cc(C(=O)O)c2ccccc2n1
→ -1% | -5% | -1% | -15% | -15%[46.1 µM] | 9%[46.1 µM] | . | .
31	Cc1cc(C)cc(C(=O)N2CCN=C2c2ccccc2)c1
→ 5% | -4% | 7% | -3% | 24% | -30% | 1.7% | 20%
32	CCN(CC(=O)NCc1cccs1)C(=O)c1ccc(-c2cccc(C(F)(F)F)c2)o1
→ 3% | -15% | . | -14% | -18%[46.1 µM] | ? | . | .
33	CSc1c(CC(=O)Nc2ccccc2)n(Cc2ccccc2)c2ccccc12
→ 10% | -21% | 3% | 5% | 5% | -3% | -1.6% | ?
34	COc1ccc(NC(=O)NNC(=O)c2ccc3ccccc3c2O)c(OC)c1
→ 2% | 50%[activator] | 12% | 5% | -19%[46.1 µM] | 14%[46.1 µM] | . | .
35	CCC(C)NC(=O)c1ccccc1NC(=O)CN(c1cc(C)ccc1OC)S(C)(=O)=O (stereo not drawn)
→ 0% | 9% | -1% | 3% | 14% | -21% | . | .
36	CCc1ccc(N(CC(=O)NCc2ccc(F)cc2)C(=O)c2csnn2)cc1
→ -1% | -10% | -1% | -9% | 7%[46.1 µM] | 2%[46.1 µM] | . | .
37	O=C(Cn1ncc2c3ccccc3n(Cc3ccccc3)c2c1=O)N1CCC2(CC1)OCCO2
→ -5% | . | 6% | . | -2% | . | -3.0% | ?
38	CCn1cc(/C=N\NC(=O)COc2cccc(C)c2C)c(C)n1
→ -12% | 9% | -5% | -11% | -2% | -11% | -2.7% | 9%
39	Cc1ccc(/C=N/n2c(=O)c(C(C)(C)C)nn3cnnc23)cc1
→ -19% | -20% | 10% | 8% | 26% | 6% | 4.1% | -5%
40	COc1ccc2cc(C(=O)N3CCC(Cc4ccccc4)CC3)[nH]c2c1
→ -2% | 22% | -1% | 0% | . | . | . | .
41	Cc1ccccc1OCc1nnc(SCC(=O)NC2CCCCC2)o1
→ 0% | -11% | 3% | 10% | 14%[46.1 µM] | 6%[46.1 µM] | . | .
42	CCc1ccccc1Nc1nc(N)nc(CSc2nnnn2C)n1
→ -1% | 43%[activator] | 9% | 0% | -8%[46.1 µM] | -1%[46.1 µM] | . | .
43	CC(=O)c1cccc(Nc2nc(-c3ccccc3)nc3ccccc23)c1
→ 2% | ? | 8% | 8% | -28% | -25% | . | .
44	Cc1ccc2cc(C#N)c(SCC(=O)Nc3ccc4sc(C)nc4c3)nc2c1
→ 3% | . | 3% | . | . | . | -0.4% | 0%
45	CC(=O)CSc1nnc(-c2ccc3c(c2)OCO3)o1
→ -1% | -40% | 1% | -26% | ? | ? | -3.1% | -18%
46	CCOC(=O)c1c(NC(=O)c2cccs2)sc2c1CCCC2
→ 0% | -1% | -5% | 0% | 0% | -13% | -5.4% | -8%
47	O=C(NCc1cccnc1)c1ccccc1[N+](=O)[O-]
→ 5% | -26% | 3% | -3% | . | . | -2.3% | -6%
48	CN(C)c1ccc(CN(C(=O)COc2ccccc2)C2CCS(=O)(=O)C2)cc1 (stereo not drawn)
→ -8% | 21% | -2% | 2% | 7% | -10% | 6.6% | 11%
49	CC(C)CCn1c(Cl)nc2c1c(=O)n(C)c(=O)n2C
→ -3% | -21% | 1% | 7% | -4% | -3% | 5.6% | -7%
50	COc1ccc(S(=O)(=O)N2CCCCC2)cc1NC(=O)c1ccc(OC)c(OC)c1
→ -3% | 7% | . | 0% | -8% | ? | . | .

Further compounds follow:
Value order – SARS PLpro yeast | 2A StopGo | NS1 inh | RE007 growth inh | Marburg entry inh | Lassa entry inh | Cruzain Triton | Cruzain noTriton
51	CCCN1CCN(CCNC(=O)Nc2cc(OC)cc(OC)c2)CC1
→ . | -14% | . | . | -1%[46.1 µM] | ? | 0.4% | 10%
52	CCCCn1c(=O)[nH]c2c(oc3ccccc32)c1=O
→ 2% | 47%[activator] | -6% | -15% | . | . | . | .
53	CN(C)c1ccc(C(C(=O)NCC2CCCO2)N(Cc2ccccc2)C(=O)c2snc(C(N)=O)c2N)cc1 (stereo not drawn)
→ 2% | 3% | -4% | 12% | ? | ? | . | .
54	O=C(COC(=O)Cc1cccc(C(F)(F)F)c1)Nc1cccc2ccccc12
→ -23% | -2% | -1% | 3% | ? | 12% | -12% | -4%
55	COc1cccc(-n2c(C)n[nH]c2=O)c1
→ 5% | -17% | ? | 6% | 13% | 22% | 7.3% | -7%
56	COc1ccc(OCC(=O)N/N=C(/C)Cc2ccccc2)cc1
→ -6% | ? | -2% | 1% | -14% | ? | -1.9% | 4%
57	CC(OC(=O)c1ccc2ccccc2n1)C(=O)Nc1ccc(N2CCOCC2)cc1 (stereo not drawn)
→ 2% | -3% | -8% | 3% | 3% | 0% | -4.5% | -3%
58	CCCCCOc1ccc(/C=c2\sc3nc(=O)c(-c4ccccc4)nn3c2=O)cc1OC
→ ? | 0% | 2% | -11% | 28% | 2% | -4.5% | -8%
59	CCOC(=O)N1CCC(NC(=O)c2cc(C(=O)Nc3ccc(OC)c(OC)c3)ccc2CO)CC1
→ 6% | -19% | -48% | 1% | 5% | 1% | 5.4% | ?
